Screens from PubChem BioAssay.
ALR H2O2 inh: inhibitors of human sulfhydryl oxidase ALR; P55789; inhibition, % (test concentration not listed); purified ALR, DTT oxidation, H2O2 HRP-luminol luminescence; AID 485317; hit rate 3.8% among 290,000;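 active means mean and each replicate at 75% or more; inconclusive means only one of the two met; inactive means neither met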;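 further: stock transfer was 7.5 nL into about 7.5 µL; 0% = neutral wells and 100% = wells with inactivated enzyme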
Target sequence (P55789 whole entry, looked up): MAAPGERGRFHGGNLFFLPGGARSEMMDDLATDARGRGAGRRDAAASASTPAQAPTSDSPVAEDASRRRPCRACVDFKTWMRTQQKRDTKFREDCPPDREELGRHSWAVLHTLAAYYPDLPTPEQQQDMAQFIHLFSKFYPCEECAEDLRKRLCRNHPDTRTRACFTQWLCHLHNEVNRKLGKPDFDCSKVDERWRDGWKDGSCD
Calb FLC: C. albicans growth modulation with fluconazole; C. albicans CaCi-2 (fluconazole-resistant clinical isolate) + fluconazole, Alamar Blue growth, 48 h; growth inhibition, % (test concentration not listed); hit rate 0.57% among 300,000; AID 1979;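 active means most replicates above 75%; inconclusive means exactly half above 75%; inactive means most below 75%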;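 further: all wells also contain fluconazole at 8 µg/ml as a sub-toxic cotreatment; 0% = median of DMSO wells and 100% = median of geldanamycin control wells; wells of about 8 µL received 7.5 nL stock; the first replicate is given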
rRNA inh HTS: selective bacterial rRNA inhibition in E. coli; GFP signal change (wild-type ribosome), % (test concentration not listed); E. coli WT GFP vs humanized-ribosome RFP mutants, fluorescence, 24 h; stronger effect = lower value; DMSO median 0, no signal -100; hit rate 1.6% among 350,000;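 active means significant combined selectivity score with lowered wild-type GFP, culture density cut under 30%, mutant RFP and density less affected; inactive means any of these conditions unmet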; further: one replicate is shown; some compounds called inactive have numbers as strong as hits
T cruzi repl: T. cruzi replication inhibition; T. cruzi beta-gal in NIH3T3, luminescence, 90 h; inhibition, % (no concentration beside the values); hit rate 1.4% among 300,000; AID 1885;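 active means mean inhibition across valid replicates above about 55%, limit read from the data; inconclusive means mean below that limit but half or more replicates reach it; inactive means mean below it, under half of replicates reach it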;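 further: signal also drops with host cell toxicity which is not excluded here; 0% = plate median of DMSO wells and 100% = zero luminescence signal; higher percent means less beta-gal luminescence so fewer parasites; stock transfer was 50 nL into about 50 µL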
RanGTP-Impb inh: disruptors of Ran-importin-beta complex formation – biochemical, FRET, CFP-Ran, YFP-importin-beta, homogeneous, primary screen | AID 2216 | hit rate 1.1% among 300,000 | cell-free CFP-Ran/YFP-importin-beta FRET ratio | inhibition, % (no concentration beside the values);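 active means most replicates above 15%; inconclusive means exactly half above 15%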;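 further: 0% = DMSO wells and 100% = Ran loaded with GDP instead of GTP; wells of about 40 µL received 100 nL stock; the first replicate is given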
FGF22 binding: binders of recombinant human FGF22 by thermal shift; SYPRO orange fluorescence; percent of sucrose octasulfate shift, DMSO zero; Q9HCT0; hit rate 1.5% among 340,000; calls only at 9.99 µM;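 active means melting point raised past a set limit in the mean and every replicate; inconclusive means no clear call; three in four hits are not shown here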
Target sequence (Q9HCT0 whole entry, looked up): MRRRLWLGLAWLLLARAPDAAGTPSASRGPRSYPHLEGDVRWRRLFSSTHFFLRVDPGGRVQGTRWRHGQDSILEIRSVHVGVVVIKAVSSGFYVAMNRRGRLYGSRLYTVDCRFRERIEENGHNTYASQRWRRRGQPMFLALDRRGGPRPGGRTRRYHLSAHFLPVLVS
Beta cell apopt: beta cell apoptosis inhibition | protection from apoptosis, % (concentration not given with the values) | hit rate 0.8% among 300,000 | INS-1E cytokine-induced death, ATP luminescence, 48 h; percent of positive-control rescue, neutral wells zero;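 active means all replicates at 75% or more, or half of them and the mean; inconclusive means half reach 75% but not the mean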;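 further: 0% = cytokine-treated negative control wells and 100% = positive control rescue; higher means more ATP so stronger rescue from cytokine killing; wells of about 40 µL received 100 nL stock; the first replicate is given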
AF4-AF9 inh: MLL-AF4/AF9 protein interaction inhibition | P42568 | AlphaScreen, biotin-AF4 peptide binding to FLAG-AF9 | hit rate 0.47% among 350,000 | inhibition, % at 10 µM;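 active means every replicate reaching a set inhibition limit, whatever the replicate mean, cut at about 25% in these data; inconclusive means mean inhibition reaches that limit but some replicates miss it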;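 further: 0% = plate neutral control median and 100% = total signal loss; the record names both 10 and 1 µM as test concentration; the first replicate is given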
Target sequence (P42568 whole entry, looked up): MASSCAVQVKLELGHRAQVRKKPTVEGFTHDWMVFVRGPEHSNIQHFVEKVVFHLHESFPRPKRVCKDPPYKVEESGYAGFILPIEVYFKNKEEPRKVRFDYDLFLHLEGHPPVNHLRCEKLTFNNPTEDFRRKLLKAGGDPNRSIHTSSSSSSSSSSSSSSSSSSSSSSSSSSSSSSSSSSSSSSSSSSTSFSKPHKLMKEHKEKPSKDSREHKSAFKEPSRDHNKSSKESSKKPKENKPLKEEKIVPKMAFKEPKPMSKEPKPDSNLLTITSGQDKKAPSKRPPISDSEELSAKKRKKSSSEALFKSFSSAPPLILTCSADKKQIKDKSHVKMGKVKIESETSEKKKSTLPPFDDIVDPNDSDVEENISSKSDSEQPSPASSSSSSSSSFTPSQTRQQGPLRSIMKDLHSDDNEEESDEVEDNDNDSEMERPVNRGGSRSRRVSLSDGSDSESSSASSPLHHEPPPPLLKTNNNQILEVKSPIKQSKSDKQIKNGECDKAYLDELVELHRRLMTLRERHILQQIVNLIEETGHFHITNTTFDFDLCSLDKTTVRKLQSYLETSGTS
rRNA inh HTS OD600: further read-out of rRNA inh HTS, marked with its call; OD600 change, %; measured here: OD600 growth;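 optical density of the mix in the first replicate; 0 = DMSO median and -100 = no signal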
rRNA inh HTS RFP: second read-out of rRNA inh HTS, no call of its own (marks repeat the call); RFP signal change, %; measured here: RFP humanized mutant strains;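 first replicate; 0 = DMSO median and -100 = no signal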
An asterisk follows results filed as active; i = inactive; ? = inconclusive; nt = not tested or not shown; + = active, no number. The list is partial; rates above refer to the full screens.

The opening 11 compounds as a preview:
Below each compound: AF4-AF9 inh, Calb FLC, rRNA inh HTS RFP, rRNA inh HTS, FGF22 binding, Beta cell apopt, ALR H2O2 inh, rRNA inh HTS OD600, T cruzi repl, RanGTP-Impb inh
1: CCOC(=O)c1ccc2c(c1)N(Cc1ccccc1C)C(=O)c1ccccc1S2=O (centres undefined)
→ nt, 0, nt, nt, nt, -2, -13, nt, 5, -2.7
2: S=C(Nc1ccc(Oc2ccc(NC(=S)NC3CCCCC3)cc2)cc1)NC1CCCCC1
→ nt, -3, nt, nt, nt, 12, -1, nt, 35, 10
3: CCOc1ccc2nc(C)cc(Nc3ccc4c(c3)OCCO4)c2c1
→ nt, -2, nt, nt, nt, 16, 0, nt, 50, -0.1
4: Cc1ccc(C(=O)NCC(=O)NCCCc2ccccc2)s1
→ -1.6, -2, 1.0, 7, i, -2, -1, 7, -13, -7.8
5: COc1ccc(CN2C(=O)c3ccccc3C2C(=O)NCC2CCCO2)c(OC)c1 (centres undefined)
→ nt, 1, nt, nt, nt, -4, -19, nt, nt, 4.1
6: CCOC(=O)C1CCN(c2nc(-c3ccccc3)nc3c2oc2ccccc23)CC1
→ nt, 2, nt, nt, nt, 8, -3, nt, 33, 0.1
7: Cc1c(C(=O)Nc2ccc3c(c2)OCCO3)sc2ncnc(N3CCCCC3C)c12 (centres undefined)
→ 2.7, 3, -5.6, -32, i, -3, 2, -25, 20, -2.5
8: O=C1NC(c2ccc(O)cc2)Nc2ccccc21 (centres undefined)
→ 0.2, 22, -3.1, -4, i, 0, 27, 2, -14, -4.5
9: CCCC(=O)NC(=S)Nc1cccc2c(O)cccc12
→ 4.4, -2, 2.6, -16, i, 0, 91*, -16, 36, ?
10: CCC(C)NC(=O)c1ccc(CSCc2cccc(F)c2)o1 (centres undefined)
→ 3.3, 17, -1.5, 2, i, -4, 2, -1, -9, -4.7
11: Brc1ccc(OCCCOc2cccc3cccnc23)cc1
→ 1.6, -1, -2.5, -30, i, -2, -8, -59, 6, 0.1

Results, previewed entries included:
Below each compound: AF4-AF9 inh, Calb FLC, rRNA inh HTS RFP, rRNA inh HTS, FGF22 binding, Beta cell apopt, ALR H2O2 inh, rRNA inh HTS OD600, T cruzi repl, RanGTP-Impb inh
1: CCOC(=O)c1ccc2c(c1)N(Cc1ccccc1C)C(=O)c1ccccc1S2=O (centres undefined)
→ nt, 0, nt, nt, nt, -2, -13, nt, 5, -2.7
2: S=C(Nc1ccc(Oc2ccc(NC(=S)NC3CCCCC3)cc2)cc1)NC1CCCCC1
→ nt, -3, nt, nt, nt, 12, -1, nt, 35, 10
3: CCOc1ccc2nc(C)cc(Nc3ccc4c(c3)OCCO4)c2c1
→ nt, -2, nt, nt, nt, 16, 0, nt, 50, -0.1
4: Cc1ccc(C(=O)NCC(=O)NCCCc2ccccc2)s1
→ -1.6, -2, 1.0, 7, i, -2, -1, 7, -13, -7.8
5: COc1ccc(CN2C(=O)c3ccccc3C2C(=O)NCC2CCCO2)c(OC)c1 (centres undefined)
→ nt, 1, nt, nt, nt, -4, -19, nt, nt, 4.1
6: CCOC(=O)C1CCN(c2nc(-c3ccccc3)nc3c2oc2ccccc23)CC1
→ nt, 2, nt, nt, nt, 8, -3, nt, 33, 0.1
7: Cc1c(C(=O)Nc2ccc3c(c2)OCCO3)sc2ncnc(N3CCCCC3C)c12 (centres undefined)
→ 2.7, 3, -5.6, -32, i, -3, 2, -25, 20, -2.5
8: O=C1NC(c2ccc(O)cc2)Nc2ccccc21 (centres undefined)
→ 0.2, 22, -3.1, -4, i, 0, 27, 2, -14, -4.5
9: CCCC(=O)NC(=S)Nc1cccc2c(O)cccc12
→ 4.4, -2, 2.6, -16, i, 0, 91*, -16, 36, ?
10: CCC(C)NC(=O)c1ccc(CSCc2cccc(F)c2)o1 (centres undefined)
→ 3.3, 17, -1.5, 2, i, -4, 2, -1, -9, -4.7
11: Brc1ccc(OCCCOc2cccc3cccnc23)cc1
→ 1.6, -1, -2.5, -30, i, -2, -8, -59, 6, 0.1
12: Cc1ccccc1-c1nc2ccccc2c(=O)n1C1CCS(=O)(=O)C1 (centres undefined)
→ nt, 6, nt, nt, nt, 4, 0, nt, 3, ?
13: Cc1cc(C)cc(NC(=O)CSc2nc3c(c(=O)n2C)SC(C)C3)c1 (centres undefined)
→ 4.4, 0, 0.2, 5, i, -2, 97*, 5, 2, 1.7
14: Cc1ccc(-c2nnc(SCC(=O)N/N=C/c3c(C)nn(-c4ccccc4)c3C)n2-c2ccc(C)cc2)cc1
→ nt, 7, nt, nt, nt, 7, 3, nt, 11, 0.7
15: Cc1nn(C)cc1/C=N\NC(=O)Cc1ccc([N+](=O)[O-])cc1
→ nt, 16, nt, nt, nt, 0, -3, nt, -12, 3.3
16: COc1cc(OC)c(OC)cc1CN1CCCC(C(=O)c2sccc2C)C1 (centres undefined)
→ 13, -32, -1.7, -3, i, 1, -13, -7, 50, -0.9
17: COc1ccc(S(=O)(=O)Nc2ccc(F)c(F)c2)cc1C(=O)N1CCOCC1
→ -0.7, 2, 0.3, 7, i, 7, nt, 5, 3, 5.6
18: Cc1ccc(O)c(NC(=O)CCCC(=O)O)c1
→ -1.6, 20, 3.6, 4, i, -6, 82*, 13, -6, 5.8
19: COc1cc(C2/C(=C(\O)c3ccc4c(c3)OCCO4)C(=O)C(=O)N2Cc2ccco2)cc(OC)c1OC (centres undefined)
→ -1.1, -5, -0.7, 6, i, -4, -2, 14, nt, nt
20: CC(NC(=O)CN(C)CC(=O)Nc1ccc(F)c(F)c1F)c1ccccc1 (centres undefined)
→ -2.5, ?, -0.4, 3, i, -2, 3, 5, -15, 0.7
21: Cc1cccc(C#N)c1NC1=CC(=O)CC(C)(C)C1
→ nt, -7, nt, nt, nt, -4, -6, nt, 7, 1.3
22: Cc1c(Cl)cnc(NC(=O)COC(=O)C2CC2)c1Cl
→ 1.2, nt, -1.0, 5, i, 0, -19, 3, nt, nt
23: O=C(OCc1cc(Cl)cc2c1OCOC2)c1cccnc1Cl
→ -2.3, nt, -14, -55, i, -4, 0, -73, nt, nt
24: COc1cccc(-c2cc(C(=O)N3C(C)CCCC3C)no2)c1 (centres undefined)
→ nt, 4, nt, nt, nt, 2, -3, nt, 19, 5.9
25: COC(=O)CN1C(=S)N(c2ccc(F)cc2)C(=O)C1CC(=O)Nc1ccccc1 (centres undefined)
→ 2.8, 1, -1.1, -6, +, -5, -63, -6, -12, 5.3
26: Cc1cc(NC(=O)CSc2ncnc3c2cnn3-c2ccccc2)no1
→ 0.6, 32, 10, -12, nt, -2, -1, 1, -12, 6.4
27: Cc1ccc(-c2cc(C(=O)O)c3ccccc3n2)s1
→ -1.4, 5, 1.1, -4, i, 7, 23, 0, -4, -0.9
28: O=[N+]([O-])c1ccc(O)c(/C=N/n2cnc3ccccc32)c1
→ -0.5, 63, 8.1, 9, i, 17, -3, 10, 1, -2.7
29: C=CCOc1ccc(C(=O)O)cc1Cl
→ -2.7, 8, 0.2, 6, i, -14, 0, 8, -18, -0.8
30: CCOC(=O)C1(Cc2cccc(OC)c2)CCN(Cc2cccc(OC)c2O)CC1
→ 12, 10, 1.7, -16, i, -2, 17, -18, 6, -3.9
31: CCC(=O)NC(=S)Nc1ccc(NC(=O)c2cc3ccccc3o2)c(OC)c1
→ -1.9, 26, 1.5, 10, nt, 0, -5, 13, 40, -0.5
32: O=C(Nc1nc(-c2ccccn2)cs1)Nc1ccc(F)cc1F
→ -1.5, 3, -17, -60, i, 77*, -6, -76, 55*, ?
33: C/C(=N/NC(=O)c1ccncc1)c1ccccc1
→ -2.2, 4, 2.8, 16, i, nt, -9, 15, -4, 3.2
34: CC(NC(=O)CCc1ccccc1)c1cc2c(cc1Cl)OCCO2 (centres undefined)
→ -0.8, -17, 0.5, -8, i, 1, 1, -4, 3, 3.1
35: CC(C)(C)OC(=O)C[C@H]1C/C=C\C[C@@H](CC(=O)N(CCO)Cc2ccccc2)C(=O)N2CCC[C@H]2COC1=O
→ -0.8, nt, -2.6, -2, i, -3, -3, -13, nt, nt
36: CCOC(=O)CCC(=O)c1c(C)oc2ccc(OC)cc12
→ nt, 5, nt, nt, nt, -7, -12, nt, 3, 2.8
37: c1ccc(Cc2nn3c(COc4ccccc4)nnc3s2)cc1
→ nt, -10, nt, nt, nt, -3, -1, nt, -5, 2.1
38: O=C(CN1C(=O)/C(=C/c2ccco2)SC1=S)NC1CCS(=O)(=O)C1 (centres undefined)
→ 0.1, 28, -1.6, -1, i, -4, -2, 9, 0, -0.9
39: CC(C)C(C(=O)Nc1sc2c(c1C#N)CCCCC2)N1C(=O)c2ccccc2C1=O (centres undefined)
→ nt, -1, nt, nt, nt, -3, 11, nt, -20, 1.7
40: c1csc(Cc2nc(-c3ccc(-n4cccc4)cc3)no2)c1
→ -1.9, -7, 7.1, 2, i, nt, nt, 5, -5, -0.4
41: CCOc1ccc2c(c1)s/c(=N\S(=O)(=O)c1ccc(OC)cc1)n2C(F)F
→ nt, -6, nt, nt, nt, 4, -3, nt, 17, -0.3
42: Cc1ccc(C2/C(=C(\O)c3c(C)nc4ccccn34)C(=O)C(=O)N2CCN(C)C)o1 (centres undefined)
→ nt, -1, 3.8, 20, i, 1, nt, -3, -20, 2.7
43: CCN(CC)CC(=O)n1c2c(c3ccccc31)CCCC2
→ nt, -18, nt, nt, nt, 5, -2, nt, 11, 2.7
44: CN(CCc1ccccn1)C(=S)Nc1ccc(Cl)c(Cl)c1
→ -2.6, 28, -33, -57, i, 9, -4, -79, 5, -3.7
45: CCSc1nnc(NC(=O)CSc2nccn2-c2cc(C)cc(C)c2)s1
→ nt, 1, nt, nt, nt, -10, -15, nt, 5, 26*
46: CC1CC(C)CN(C(=O)COC(=O)c2ccc[nH]c2=O)C1 (centres undefined)
→ nt, 0, nt, nt, nt, -13, -4, nt, -19, -1.0
47: COc1ccc(Cl)cc1N(CC(=O)Nc1ccccc1C(=O)N1CCCC1)S(C)(=O)=O
→ -3.1, -20, -0.6, 3, i, -1, nt, 12, -4, 7.1
48: CSC(=NC#N)N1CCN(C(=NC#N)SC)CC1
→ -0.7, -9, 3.4, 16, i, nt, -2, 17, -16, -3.3
49: COc1ccccc1NC(=O)c1c(C)nc2ccccc2c1C(=O)O
→ -14, 1, -2.4, 8, i, -1, -6, 11, 6, ?
50: CC(=O)Nc1ccc(NC(=O)CSc2nnnn2-c2ccc3c(c2)OCCO3)cc1
→ -2.1, 9, -3.0, -1, nt, 1, -9, 12, -3, -3.9
51: Cc1ccc(OC(=O)C2CCN(C(=O)c3ccccc3C)CC2)c(Br)c1
→ -0.4, 13, -1.0, 0, i, nt, -3, -40, 1, 6.7
52: Cn1c(-c2sc3cc(C(F)(F)F)cnc3c2-c2ccccn2)n[nH]c1=S
→ -2.1, 2, 2.3, 3, i, -5, 46, 3, -17, -0.8

Looked up above.
Calb FLC result of entry 48 → -9
Calb FLC result of entry 50 → 9
